High-throughput results: PubChem, Emory University Molecular Libraries Screening Center
Measles inh: inhibitors of measles virus growth in cells, primary screen, measles RdRp inhibitor project, cell-based, single point, HTS. infected Vero cells, GFP fluorescence, 64 h; active compounds read low. z-score (no concentration beside the values). hit rate 0.1% among 33,000;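 active = z-score under -3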;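 note: score is relative to mean and SD of the compound wells of a plate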
The depositor's hits bear a star. The list is partial, so the mix of outcomes need not match the whole.

smiles | Measles inh
Cc1ccc(C)c(Cn2c(C(C)NC(=O)C(C)(C)C)nc3ccccc32)c1 (configuration not stated) | -0.19
CCc1c(C)c2ccc(O)c(C)c2oc1=O | -0.73
O=C(CSC1=NC(=O)C(c2ccccc2)C(=O)N1)Nc1ccccn1 (configuration not stated) | 0.27
Cc1cc(C)c(S(=O)(=O)NCc2ccc(C(=O)NCCc3ccccc3)cc2)c(C)c1 | -0.67
Cc1ccc(OCC(=O)Nc2ccc(S(=O)(=O)N3CCCCC3)cc2)c(Br)c1 | -0.4
O=C1c2ccccc2C(=O)N1CCCCN(C(=O)c1cccc(Cl)c1)c1ccc(Cl)cc1 | 1.9
CCn1cc(CNC(=O)c2cc(-c3ccccc3)nc3ccc(Br)cc23)c(C)n1 | -0.69
CC12CCC(C(=O)Nc3cccnc3)(C(=O)C1=O)C2(C)C (configuration not stated) | -0.65

Compounds above that contain nitrogen in an aromatic ring, in the order listed:
smiles | Measles inh
Cc1ccc(C)c(Cn2c(C(C)NC(=O)C(C)(C)C)nc3ccccc32)c1 (configuration not stated) | -0.19
O=C(CSC1=NC(=O)C(c2ccccc2)C(=O)N1)Nc1ccccn1 (configuration not stated) | 0.27
CCn1cc(CNC(=O)c2cc(-c3ccccc3)nc3ccc(Br)cc23)c(C)n1 | -0.69
CC12CCC(C(=O)Nc3cccnc3)(C(=O)C1=O)C2(C)C (configuration not stated) | -0.65

New compounds follow
smiles | Measles inh
CC1=C(C(=O)OCCc2ccccc2)C(c2cc3c(cc2[N+](=O)[O-])OCO3)C2=C(CC(c3ccccc3)CC2=O)N1 (configuration not stated) | -0.5
CCCOc1ccccc1C1NC(=O)NC(C)=C1C(=O)OCCc1ccccc1 (configuration not stated) | -0.78
O=C(COc1ccccn1)c1ccc(Br)cc1 | 1.1
O=C1Sc2cccc3cccc1c23 | -0.58
O=C(O)c1ccccc1C(=O)Nc1ccc2c(c1)OCCO2 | -0.74
Nc1scc[n+]1CC(=O)c1ccc(Cl)cc1 | -0.8
COCCNC(=O)c1cc(Nc2cccc(C(F)(F)F)c2)nc2ccccc12 | -0.21
CC(C)N(Cc1ccccc1)C(=O)c1cnc2n(c1=O)CCS2 | 0.51

Remaining list, next part:
smiles | Measles inh
O=C(O)c1ccc2c(c1)C1C=CCC1C(c1cccc([N+](=O)[O-])c1)N2 (configuration not stated) | -0.72
Cc1c(NS(=O)(=O)c2ccccc2)cc(C(C)C)c(O)c1S(=O)(=O)c1ccccc1 | -0.33
O=C(CSc1nc2ccc(N3CCOCC3)cc2c(=O)n1Cc1ccccc1)NCc1ccccc1 | -0.72
COc1ccc2oc(=O)c(-c3nc4sc5c(c4c(=O)[nH]3)CCCC5)cc2c1 | 2
Cc1ccc(NC(=O)Cc2cc3ccccc3n2Cc2ccccc2)cc1 | -0.26
O=c1sc2cc(SC(F)(F)F)cc([N+](=O)[O-])c2s1 | -1.3
CC(=O)NC(c1ccc(C)cc1)c1cc([N+](=O)[O-])c2cccnc2c1O (configuration not stated) | -3.4*
CCc1ccc(NC(=O)c2cc3c(=O)[nH]c4ccccc4c3s2)cc1 | -0.91

The list continues.
smiles | Measles inh
Cc1ccc(CNC(=O)c2cnn3c(C)c(Cc4ccccc4C)c(C)nc23)cc1 | 0.85
COC(=O)C1=C(C)N(C)C(=S)NC1c1ccc(OC)c(OC)c1 (configuration not stated) | -0.38
CC(=O)CCc1oc2ccc(Cl)cc2c1-c1ccc(C)o1 | -0.11
Cc1ccc(SCCNC(=O)CN(c2cc(C(F)(F)F)ccc2Cl)S(C)(=O)=O)cc1 | -0.54
O=[N+]([O-])c1ccc(Nc2ccccc2O)c2nonc12 | 1.5
CSc1nc(-c2ccco2)nn1S(C)(=O)=O | 0.09
COc1cc2c(cc1OC)C(C(=O)Nc1ccc3c(c1)OCCO3)C(c1ccccc1F)N(C)C2=O (configuration not stated) | -0.5
CC1=C(C(=O)OCCOc2ccccc2)C(c2ccc(C)o2)C2=C(CCCC2=O)N1 (configuration not stated) | 0.68

Later entries
smiles | Measles inh
COC(=O)C1=CNC=C(C(=O)OC)C1c1cccc2ccccc12 | -0.23
COc1ccc2nc(NC(=O)CSC3=NCCS3)sc2c1 | -0.47
Cc1ccc(S(=O)(=O)NCc2ccccn2)cc1[N+](=O)[O-] | -0.84
COc1ccc(-c2cc(C(F)(F)F)nc(-n3cc([N+](=O)[O-])cn3)n2)cc1 | 3.5
Cc1cc(Br)ccc1NC(=O)CCN1C(=O)c2ccccc2C1=O | 0.07
CCOC(=O)c1c(-c2ccccc2)csc1NC(=O)COc1ccc([N+](=O)[O-])cc1 | 0.65
CC1CCCCC1N1C(=O)C2C(C(=O)Nc3ccc(Cl)cc3)C3C=CC2(O3)C1C(=O)NC1CCCCC1 (configuration not stated) | -0.45
O=C(CCC1=NS(=O)(=O)c2ccccc2N1)NCc1ccco1 | -0.71

Next part:
smiles | Measles inh
Cc1ccc(NC(=O)c2ccccc2C)cc1I | -0.26
CCCSc1nc(-c2ccc(C)cc2)cc(C(F)(F)F)c1C#N | -0.15
O=C1NC(c2ccc(C(F)(F)F)cc2)C(C(=O)c2ccccc2)C(O)(C(F)(F)F)N1 (configuration not stated) | -1.3
COc1cc(C(=O)Nc2nnc(C)s2)c(Br)c(OC)c1OC | -2.5
CCCC(=O)N1c2ccccc2-c2nnc(SC)nc2OC1c1ccc(C)o1 (configuration not stated) | 0.78
O=C(NCCCn1ccnc1)c1cc2c(=O)n3ccccc3nc2s1 | 0.71
CCOc1ccc(S(=O)(=O)Nc2cccc(CC)c2)c2cccnc12 | -0.37
Cc1c(C(=O)N2CCN(c3cccc(Cl)c3)CC2)sc2ncn(Cc3cccc(F)c3)c(=O)c12 | 0.15

(listing goes on)
smiles | Measles inh
O=C(Nc1ccc(F)cc1)c1scc2c1CCCC2 | 0.36
N#CC(Cl)Cc1ccc([N+](=O)[O-])cc1 (configuration not stated) | 0.04
O=C(Cn1c(=O)[nH]c2ccsc2c1=O)NC1CCCc2ccccc21 (configuration not stated) | -1.4
Cc1ccc2c(c1)C(c1ccccc1)N(C(=O)COc1ccccc1)CC(=O)N2 (configuration not stated) | 0.53
CCOc1cc(C2C(C(=O)OC(C)C)=C(C)NC3=C2C(=O)CC(c2ccc(Cl)cc2)C3)cc(Cl)c1O (configuration not stated) | -1.1
C=CCN1CN=C(NS(=O)(=O)c2ccc(C)cc2)NC1 | -0.11
COc1ccc(C2Nc3ccccc3C(=O)N2c2ccc(Cl)cc2)cc1Cn1nnc2ccccc21 (configuration not stated) | -0.38
CC(C)(C)C(=O)Oc1cc(N)n(S(=O)(=O)c2ccccc2)n1 | -0.45

(listing goes on)
smiles | Measles inh
CCOc1cc2c(c([N+](=O)[O-])c1)NC(c1ccc([N+](=O)[O-])cc1)C1CC=CC21 (configuration not stated) | -0.87
CCOC(=O)C1C(=O)C=C(c2ccc(OC)cc2)CC1c1ccco1 (configuration not stated) | -0.75
OCCCc1nc2n(n1)C(c1ccccc1Cl)C=C(c1ccccc1)N2 (configuration not stated) | -0.25
Cc1ccc(C2NC(=O)NC(O)(C(F)(F)F)C2C(=O)c2ccc(Br)cc2)cc1 (configuration not stated) | -0.44
Cc1cccc(N2C(=O)CSC2c2cc3c(cc2Br)OCO3)c1 (configuration not stated) | 0.5
Cc1ccc(CC2C(=O)N(c3ccccc3)C(=O)C2C)cc1 (configuration not stated) | -1.6
COC(=O)C1=C(C)NC2=C(C(=O)CC(c3ccccc3)C2)C1c1cccc(O)c1 (configuration not stated) | 0.02
CCCCC1(C)Cc2ccccc2C(=O)N1 (configuration not stated) | -0.02

(listing goes on)
smiles | Measles inh
COc1ccc2c(c1)C1NC(=S)N(c3cccc(C)c3)C(C)(O2)C1C(=O)N(C)C (configuration not stated) | -0.93
CCOC(=O)c1sc2nc(C)nc(NCc3ccccc3OC)c2c1C | -0.7
CCSc1nnc2c(n1)OC(c1ccc(OC)cc1OC)Nc1ccccc1-2 (configuration not stated) | -0.56
Cc1ccc(-n2nc3c(c2NC(=O)c2cccc([N+](=O)[O-])c2)CSC3)c(C)c1 | -0.99
CC1(C)CC(=O)C2=C(C1)N=C1SCCC(=O)N1C2c1ccc(Cl)cc1 (configuration not stated) | -0.12
C=CCn1c(=S)[nH]c2cc(C(=O)Nc3ccc4c(c3)CCC4)ccc2c1=O | -0.68
Cc1nc2ccc(S(=O)(=O)NC(CC(C)C)C(=O)O)cc2s1 (configuration not stated) | -0.2
O=C1Nc2ccccc2Oc2cc(Sc3ccccc3)ccc21 | 1.8

Further entries.
smiles | Measles inh
O=c1c2sccc2nc(SCc2cc(=O)n3cc(Cl)ccc3n2)n1CCCN1CCCCC1 | -2
O=C(C1CCN(S(=O)(=O)c2cccc3nsnc23)CC1)N1CCN(c2cccc(C(F)(F)F)c2)CC1 | 0.15
Cc1ccc(C2CC(C(F)(F)F)n3nc(C(=O)NCc4cccnc4)cc3N2)cc1 (configuration not stated) | -0.01
O=C(Nc1ccc2oc(-c3ccccc3Cl)nc2c1)c1cccc(Br)c1 | -0.03
Oc1cccc(Oc2ccccc2)c1 | -1.7
O=c1oc2ccc(Cl)cc2cc1-c1nc(-c2ccccc2)cs1 | -0.24
CN(C)CCNC(=O)c1ccc(-n2c(=S)[nH]c3ccccc3c2=O)cc1 | 1.4
CCOc1cccc2c1NC(c1ccc(OC)c([N+](=O)[O-])c1)C1CC=CC21 (configuration not stated) | -0.84

Later entries:
smiles | Measles inh
CCOC(=O)CS(=O)(=O)c1ccc(C(=O)N2CCC(C)CC2)cc1[N+](=O)[O-] | 1.1
O=C(CN(c1ccc(F)cc1)S(=O)(=O)c1ccccc1)N1CCc2ccccc2C1 | -0.31
CC1=C(C(=O)OCCOC(C)C)C(c2cccc(Cl)c2)C2=C(CC(c3cccs3)CC2=O)N1 (configuration not stated) | -0.35
CN(C)c1ccc(C=Cc2nc3ccc(I)cc3c(=O)n2CCO)cc1 | 8.7
CCOC(=O)c1cnc2c(C)c(Cl)ccc2c1Nc1ccc(Cl)cc1 | -0.08
CC(C)(C)C(=O)Cn1c(=O)n(Cc2cccs2)c(=O)c2cc(Cl)ccc21 | -0.36
Cc1cccc(NC(=O)CCc2ccc(C)o2)c1 | -0.61
COC(=O)C1C(=O)C2=C(CC1C)NC(C)=C(C(=O)OC1CCCC1)C2c1ccccc1OC (configuration not stated) | 1.3

The results go on:
smiles | Measles inh
Cc1cccc(-n2ncc3c(Nc4cccc(C(F)(F)F)c4)ncnc32)c1 | -0.94
CCN(CC)C(=O)CSc1nc2cc3c(cc2c(=O)n1Cc1ccc2c(c1)OCO2)OCO3 | -1
COc1ccc2c(c1)C(OC(C)=O)C(C)(C)C(c1ccccc1)N2 (configuration not stated) | 1.8
COc1cc(C2Nc3ccccc3NC3=C2C(=O)CC(c2ccccc2)C3)cc(OC)c1OC (configuration not stated) | 1.7
COc1cc(OC)cc(C(=O)N2CCN=C2SCc2cc(C)ccc2C)c1 | -1.3
COC(=O)c1ccc(C2Nc3ccccc3S(=O)(=O)N2Cc2ccccc2)cc1 (configuration not stated) | -0.41
Clc1cccc(-c2nc(-c3ccccn3)no2)c1 | -0.25
COc1cc(OC)cc(-c2nnc(SCC(=O)N3CCC(C)CC3)o2)c1 | -0.9

Seven compounds picked at random from those above, as already listed:
smiles | Measles inh
COC(=O)c1ccc(C2Nc3ccccc3S(=O)(=O)N2Cc2ccccc2)cc1 (configuration not stated) | -0.41
COc1cc(OC)cc(-c2nnc(SCC(=O)N3CCC(C)CC3)o2)c1 | -0.9
COc1cc(OC)cc(C(=O)N2CCN=C2SCc2cc(C)ccc2C)c1 | -1.3
Clc1cccc(-c2nc(-c3ccccn3)no2)c1 | -0.25
Cc1cccc(-n2ncc3c(Nc4cccc(C(F)(F)F)c4)ncnc32)c1 | -0.94
COc1cc(C2Nc3ccccc3NC3=C2C(=O)CC(c2ccccc2)C3)cc(OC)c1OC (configuration not stated) | 1.7
CCN(CC)C(=O)CSc1nc2cc3c(cc2c(=O)n1Cc1ccc2c(c1)OCO2)OCO3 | -1

Later entries.
smiles | Measles inh
CCn1cnc2sc(C(=O)N3CCC(C)CC3)c(C)c2c1=O | 2.8
O=S(=O)(NCCCN1CCCCCC1)c1cccc2nsnc12 | 2.9
Nc1cc(OC(=O)c2ccccc2Br)nn1S(=O)(=O)c1ccccc1 | -0.24
COc1ccc(S(=O)(=O)NCCc2cc3cc(C)c(C)cc3[nH]c2=O)cc1 | -0.62
O=C(c1nn2c(C(F)(F)F)cc(-c3cccs3)nc2c1Cl)N1CCN(Cc2ccccc2)CC1 | 0.22
O=C(CCn1c(=S)[nH]c2ccccc2c1=O)NCCc1ccc(Cl)cc1 | -2.1
CCOC(=O)C1CCN(C(=O)CC(C)(C)CC2=NS(=O)(=O)c3ccccc3N2)CC1 | -0.02
COc1ccc(NC(=O)Cn2c(=O)n(-c3ccccc3)c(=O)c3c4c(sc32)CCCC4)cc1 | 1.4

Already shown: an excerpt of the list.
smiles | Measles inh
CCOC(=O)C1CCN(C(=O)CC(C)(C)CC2=NS(=O)(=O)c3ccccc3N2)CC1 | -0.02
COc1ccc(NC(=O)Cn2c(=O)n(-c3ccccc3)c(=O)c3c4c(sc32)CCCC4)cc1 | 1.4

(next part)
smiles | Measles inh
CC1=C(C(=O)Nc2ccc(F)cc2)C(c2ccc(N(C)C)cc2)NC(=O)N1 (configuration not stated) | 0.09
O=C(NCc1ccccc1Cl)C1CCN(S(=O)(=O)N2CCOCC2)CC1 | -0.25
c1ccc(CN2C3=NCCN3c3ccccc32)cc1 | -0.17
Cc1ccc(S(=O)(=O)N2CCC(C(=O)N3CCCC(C)C3)CC2)cc1 (configuration not stated) | 0.04
CC1CC(=O)N(c2ccc(NCCNc3cccc4ccccc34)c([N+](=O)[O-])c2)C1=O (configuration not stated) | 0
COc1ccccc1CNC(=O)c1ccc2c(c1)nc(C)n2-c1ccccc1OC | -0.47
OCc1ccc(O)c2ncccc12 | -0.5
Cc1cccc(NC(=O)COc2cc(C)c(Cl)c(C)c2)n1 | 0.69

New compounds follow
smiles | Measles inh
N#CCc1ccc(NC(=O)c2ccco2)cc1 | -0.03
COC(=O)C1=C(N)N(c2ccccc2F)C2=C(C(=O)CCC2)C1c1ccc([N+](=O)[O-])cc1 (configuration not stated) | -1.4
CCCCOc1ccc(C(=O)Oc2ccc(C(C)(C)C)cc2)cc1 | -0.05
Cc1cccc(-n2cnc3sc4c(c3c2=O)CCCC4)c1 | 0.41
CCC(=O)NC(c1ccccc1)c1ccc2cccnc2c1O (configuration not stated) | -0.12
